Screens from PubChem.
miR-21 reporter = qHTS Assay for Modulators of miRNAs and/orActivators of miR-21 | HeLa miR-21 FLuc reporter, luciferase, 48 h | 340,000 tested, under 10 active | AID 2288, 2010 | Potency, µM (top dose mostly 38.3 µM), for inactives: at the highest dose reporter change, positive = more light; active = well fitted rising curve with a large enough effect; inconclusive = small, poorly fitted or top-dose-only effect; inactive = no such curve, though single readings can be large or run the other way;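 note: % of control where 0% means no effect; miR-21 action dims this reporter so a rising signal means less miR-21 action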
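Luminescence from a firefly luciferase reporter carrying a miR-21 binding site downstream, stably expressed under a CMV promoter in HeLa cells that make miR-21 endogenously, reports miRNA modulation after 48 h compound exposure up to approximately 40uM final.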
* marks the source's active call; other numbers are inactive results; ? = inconclusive. This is a subset; rates above refer to the full screens.

SMILES	miR-21 reporter
COc1ccccc1N1CCN(C(=O)CN2C(=O)COc3ccc(S(=O)(=O)N4CCC(C)CC4)cc32)CC1	1%
COC(=O)c1cc(C)nc2c1c(=O)nc(SCc1ccccc1F)n2C1CC1	-17%
CCOC(=O)c1c(-c2ccccc2)csc1NC(=O)c1cc(-c2ccc(C)c(F)c2)on1	-9%
O=C(NCc1ccc(F)cc1)c1ccc(CS(=O)Cc2ccc(Cl)cc2)o1 (stereo not drawn)	-1%
CCc1nnc(SCc2nc(-c3cccc(C)c3)oc2C)c2cc3sc(C)cc3n12	1%
COC(=O)c1c(-c2cccs2)csc1NC(=O)COc1ccc(C(C)C)cc1	-4%
CCOc1ccc(C(=O)c2cn(CC(=O)Nc3ccc(F)cc3)c3cc4c(cc3c2=O)OCO4)cc1	3%
CCOC(=O)c1cc(-c2ccc(OC)cc2)n(CCC(=O)NCCc2ccc(OCC)c(OCC)c2)c1C	-2%
Cc1cc(Nc2ccc(C)c(Cl)c2)n2nc(-c3ccccc3)nc2n1	2%
COc1ccccc1-c1cc(C(=O)Nc2c(C)nn(Cc3ccc(Cl)cc3)c2C)no1	?
CC(C)CCN(Cc1ccco1)C(=O)Cn1ncc2c([nH]c3ccccc32)c1=O	23%
O=C(NCc1ccc(F)cc1)c1ccc2c(O)c(S(=O)(=O)c3ccccc3)c(=O)[nH]c2c1	0%
CCc1nn(CC(=O)NCc2ccco2)c(=O)c2cc3cc(F)ccc3n12	-4%
COc1ccccc1N1CCN(C(=O)c2cc(-c3ccc(C)c(F)c3)on2)CC1	21%
CCOc1ccc(Sc2cc(C(=O)NCCc3ccc(OC)c(OC)c3)c3ccccc3n2)cc1	18%
O=C(Nc1ccc(C(=O)OCc2cc(=O)n3nc(C4CC4)sc3n2)cc1)c1ccc(F)cc1	-2%
CC(C)(C)C(=O)NCCc1csc2nc(-c3ccc(F)cc3)nn12	1%
COc1ccccc1CNC(=O)CCCn1nc(C)c2sc3ccccc3c2c1=O	-37%
CCc1cccc(NC(=O)C(c2ccccc2)N2Cc3ccccc3C2=O)c1 (stereo not drawn)	-2%
CCN(c1ccccc1)S(=O)(=O)c1nnc(NC(=O)c2cccs2)s1	?

Sorted by heavy-atom count (rising): 12 of the compounds above
SMILES	miR-21 reporter
CC(C)(C)C(=O)NCCc1csc2nc(-c3ccc(F)cc3)nn12	1%
CCN(c1ccccc1)S(=O)(=O)c1nnc(NC(=O)c2cccs2)s1	?
CCc1nn(CC(=O)NCc2ccco2)c(=O)c2cc3cc(F)ccc3n12	-4%
COC(=O)c1c(-c2cccs2)csc1NC(=O)COc1ccc(C(C)C)cc1	-4%
CC(C)CCN(Cc1ccco1)C(=O)Cn1ncc2c([nH]c3ccccc32)c1=O	23%
COc1ccccc1CNC(=O)CCCn1nc(C)c2sc3ccccc3c2c1=O	-37%
COc1ccccc1-c1cc(C(=O)Nc2c(C)nn(Cc3ccc(Cl)cc3)c2C)no1	?
O=C(NCc1ccc(F)cc1)c1ccc2c(O)c(S(=O)(=O)c3ccccc3)c(=O)[nH]c2c1	0%
O=C(Nc1ccc(C(=O)OCc2cc(=O)n3nc(C4CC4)sc3n2)cc1)c1ccc(F)cc1	-2%
CCOc1ccc(Sc2cc(C(=O)NCCc3ccc(OC)c(OC)c3)c3ccccc3n2)cc1	18%
CCOc1ccc(C(=O)c2cn(CC(=O)Nc3ccc(F)cc3)c3cc4c(cc3c2=O)OCO4)cc1	3%
CCOC(=O)c1cc(-c2ccc(OC)cc2)n(CCC(=O)NCCc2ccc(OCC)c(OCC)c2)c1C	-2%

Next part
SMILES	miR-21 reporter
CCN1CCOC(=O)C1CC(=O)Nc1ccc(C)c(Cl)c1 (stereo not drawn)	-13%
COc1ccc2[nH]cc(CCNC(=O)c3cnn(-c4ccc(C)cc4)c3C3CCN(C(=O)OC(C)(C)C)CC3)c2c1	?
COC(=O)c1sc(-c2ccccc2)cc1NC(=O)c1cccc(F)c1	0%
CCC(C)(C)NS(=O)(=O)c1cc(-c2cc(C)no2)ccc1C	7%
CCOC(=O)N1CCc2c(sc3c2c(=O)n(Cc2ccccc2)c(=O)n3CC(=O)Nc2c(C)cccc2C)C1	0%
COc1ccccc1-c1nc2c(c(SCC(=O)Nc3ccccc3F)n1)Cc1c(CO)cnc(C)c1O2	0%
O=C(NCc1cccc(Cl)c1)c1cc2ccc3cccnc3c2[nH]1	-4%
COc1ccc(/C=C(\C#N)c2nc3ccccc3n2C)c(OC)c1	-23%
CCc1ccccc1OCCSc1nc(-c2cccs2)nc2cc(=O)[nH]n12	-34%
CC(NC(=O)CSc1n[nH]c(-c2ccccc2Cl)n1)c1nc2ccccc2n1C (stereo not drawn)	-2%
COc1cccc(C(c2sc3nc(-c4ccco4)nn3c2O)N2CCC3(CC2)OCCO3)c1 (stereo not drawn)	-5%
Cc1cccc(NC(=O)C2CCN(S(=O)(=O)c3ccc4c(c3)CCCN4C(=O)C3CCC3)CC2)c1	14%
CCN(CC)C(=O)c1sc2c(c1C)c(=O)n(Cc1ccccc1)c(=O)n2CC(=O)Nc1ccc(OC)cc1	5%
O=C(COc1ccc(F)cc1)Nc1nnc(SCc2cc(=O)n3ccccc3n2)s1	-5%
CC(C)c1ccc(C(=O)CC2(O)C(=O)N(CCc3ccccc3)c3ccc(Cl)cc32)cc1 (stereo not drawn)	?
CCN1CCN(C(=O)Cn2c(-c3cccs3)cc3cc(Cl)ccc32)CC1	6%
CC(=O)Nc1ccc(-n2cc3c(c2-c2ccc(C)cc2)c(=O)n(C)c(=O)n3C)cc1	-17%
CCOc1cccc2cc(-c3nc4sc5c(c4c(=O)[nH]3)CCC(C(C)(C)C)C5)c(=O)oc12 (stereo not drawn)	-43%
COC(=O)c1c(NC(=O)COc2cccc(C(F)(F)F)c2)sc2c1CCCC2	0%
COc1ccc(C2=NC3(CCCCCC3)N(CC(=O)Nc3ccc(C)c(C)c3)C2=O)cc1	?
COc1ccc(NC(=O)c2sc3nc(C)c(C(=O)Nc4ccc(Cl)cc4)c(-c4ccc(Br)cc4)c3c2N)cc1	6%
CCOc1ccccc1/C=C/c1onc(C)c1S(=O)(=O)N1CCC(C(=O)N2CCCCC2)CC1	-3%
COc1ccccc1N1CCN(c2nc3ccc(C)cc3n3nnnc23)CC1	-5%
CN1CCN(C(=O)c2cnn(-c3ccccc3)c2C2CCN(C(=O)OC(C)(C)C)CC2)CC1	-1%
CCOc1ccc(OCC)c(NS(=O)(=O)c2c(C)[nH]c(=O)[nH]c2=O)c1	3%
CC1=C(C(=O)OC2CCCC2)C(c2ccccc2Cl)CC(=O)N1 (stereo not drawn)	9%
CCc1ccccc1N(C)C(=O)C1CCCN(c2ncnc3c2nc2n3CCCCC2)C1 (stereo not drawn)	-19%
CCOC(=O)c1[nH]c2ccccc2c1NC(=O)c1ccc(Br)cc1	-20%
COc1ccc(-c2nc3sc(CCNC(=O)c4cc(Cl)ccc4OC)c(C)n3n2)cc1	2%
Cc1cccc(C(=O)Nc2ccc(C(=O)OCc3cc(=O)n4nc(C5CC5)sc4n3)cc2)c1	0%
CCCCN1C(=O)c2[nH]nc(-c3ccccc3O)c2C1c1ccc(OCc2ccccc2)c(OC)c1 (stereo not drawn)	?
CCOc1ccc(C(=O)Nc2cc(-c3nc4cc(OC)ccc4o3)ccc2C)cc1[N+](=O)[O-]	-55%
Cc1cc(N2CCN(C)CC2)nc2ccc(NC(=O)Nc3ccc(Cl)cc3)cc12	-29%
CCC(=O)Nc1nnc(SCc2cc(=O)c3cc(C)ccc3[nH]2)s1	0%
COc1ccccc1N1CCN(C(=O)c2cc(CC(C)C)on2)CC1	-16%
CCCn1c2ccccc2c2cnn(CC(=O)N3CCCC(C)C3)c(=O)c21 (stereo not drawn)	-1%
CCOC(=O)c1cccc(NC(=O)CCc2c(C)nc3c4cccnc4nn3c2C)c1	1%
COc1ccccc1NC(=O)Cn1c(=O)c(CNc2ccccc2)cc2cc(OC)c(OC)cc21	-5%
Cc1ccc(CCNC(=O)C2COc3ccccc3C2)cc1 (stereo not drawn)	-18%
CCOC(=O)N1CCC2(CC1)OC(=O)C(C)=C2C(=O)NCc1cccc(F)c1	2%
CC(=O)Nc1ccc(NS(=O)(=O)c2c(C)nc3sccn3c2=O)cc1	0%
Cc1ccc(CSCCC(=O)NCc2ccc(F)cc2Cl)cc1	-5%
CCCSc1ncc(Cl)c(C(=O)Nc2scc(-c3ccc(C)cc3)c2C(=O)OCC)n1	-2%
CC(C)Oc1ccc(NC(=O)c2cc3ccccc3o2)cc1	19%
O=S(=O)(c1ccc(Cl)cc1)N1CCC(c2ccncc2)CC1	-1%
O=C(Nc1ccc(Br)cc1)c1cc(-c2cccs2)nc2ccccc12	-15%
CCc1cccc(C)c1NC(=O)CN1C(=O)c2c(c3ccccc3n2C)C1c1ccc(OC)cc1 (stereo not drawn)	11%
CCOc1ccc(C(=O)c2cn(CC(=O)Nc3ccc4c(c3)OCO4)c3ccc(OC)cc3c2=O)cc1	-1%
Cc1ccn2c(=O)c(C(=O)NCCc3ccc(S(N)(=O)=O)cc3)c(O)nc2c1	0%
O=C(CCS(=O)(=O)c1cc(Br)cc2c1N(C(=O)C1CC1)CC2)N1CCN(c2cccc(Cl)c2)CC1	2%

(cont.)
SMILES	miR-21 reporter
O=C(/C=C/c1ccc(F)cc1)Nc1nc2n(n1)C(c1ccc(Cl)cc1)C=C(c1ccccc1)N2 (stereo not drawn)	-3%
COC(=O)c1c(C)oc2ccc(N(C(=O)c3ccncc3)S(=O)(=O)c3cc(C)ccc3C)cc12	?
CC(C)NC(=O)c1nn(-c2ccccc2F)nc1CO	8%
O=C(c1ccc2c(c1)N(Cc1ccc(Cl)cc1)C(=O)c1ccccc1S2(=O)=O)N1CCCCCC1	26%
CC(C)c1ccc(-c2noc(SCC(=O)N3CCN(c4ccc(F)cc4)CC3)n2)cc1	4%
CCOc1ccc(NC(=O)C2CCCN(S(=O)(=O)c3cccc4nonc34)C2)cc1 (stereo not drawn)	-10%
CSc1cccc(NC(=O)C2CCN(S(=O)(=O)c3ccc4c(c3)CCCN4C(=O)C3CCC3)CC2)c1	9%
COc1ccc(-c2nc3ccccc3o2)cc1NC(=O)c1cc(Br)ccc1OC	-3%
CCc1sc(Nc2cccc(Cl)c2)nc1-c1cc2cccc(OC)c2oc1=O	18%
COc1ccc(CNC(=O)CSc2nc(-c3ccc(OC)c(OC)c3)cc(C(F)(F)F)n2)cc1	-14%

Two compounds picked at random from those above:
SMILES	miR-21 reporter
CSc1cccc(NC(=O)C2CCN(S(=O)(=O)c3ccc4c(c3)CCCN4C(=O)C3CCC3)CC2)c1	9%
COc1ccc(/C=C(\C#N)c2nc3ccccc3n2C)c(OC)c1	-23%

Following part
SMILES	miR-21 reporter
CC(C)c1ccc(N2C(=O)CSC23C(=O)N(Cc2ccccc2F)c2ccccc23)cc1 (stereo not drawn)	-7%
CN(C)c1ccc(-c2nc(-c3ccccn3)no2)cc1[N+](=O)[O-]	0%
NC(=O)CSc1ncc2c(n1)-c1ccccc1N(Cc1cccc(F)c1)S2(=O)=O	-1%
CCOC(=O)c1c(C)c(C(=O)NCc2ccc(OC)cc2)c(C)n1CC	-17%
COC(=O)c1ccccc1NC(=O)Nc1cccc(OCc2cc(=O)n3cccc(C)c3n2)c1	-15%
COc1ccc(CNC(=O)CSCc2nc(-c3ccccc3F)oc2C)cc1	-1%
CC(C)Cn1c(=O)c2sccc2n2c(CCCC(=O)NCc3ccccc3Cl)nnc12	-3%
COc1ccccc1C1c2c(-c3ccc(Cl)cc3)n[nH]c2C(=O)N1c1ccc(C)cc1 (stereo not drawn)	?
CCC(=O)Nc1ccc(Cl)c(-c2nc3ccccc3[nH]2)c1	-5%
CCCCCNC(=O)CCCCCn1c(=O)[nH]c2ccsc2c1=O	0%
COc1ccc(-c2nc3ccc(NS(=O)(=O)c4ccccc4)cc3o2)cc1	3%
Cc1ccc2nc3c(cc(C#N)c(=O)n3-c3nnc(SCc4ccc(F)cc4)s3)c(=O)n2c1	-14%
CCCCOc1ccc(C(=O)N/C(=C\c2ccc(Br)cc2)C(=O)NC2CCCCC2)cc1	3%
CCOc1cccc(C2c3[nH]c4ccccc4c3CCN2C(=O)Cc2cccc(OCC)c2OCC)c1 (stereo not drawn)	16%
CCOC(=O)c1ccc(CN(Cc2ccc(C)cc2)S(=O)(=O)c2ccc(F)c(C(=O)Nc3ccc(C)c(F)c3)c2)cc1	0%
CCOC(=O)N1CCC(NC(=O)c2ccc3c(c2)N(Cc2ccccc2)C(=O)c2ccccc2S3=O)CC1 (stereo not drawn)	22%
Cc1cc(C)cc(NC(=O)Cn2cc(C(=O)C3CCCCC3)c3ccccc32)c1	-6%
O=C(Cn1c(=O)c(CNc2ccccc2)cc2cc3c(cc21)OCCO3)Nc1ccccc1Cl	-4%
Cc1cccc(-c2nc(Cn3c(SCc4cc(C)ccc4C)nc4ccncc43)c(C)o2)c1	-4%
COc1ccc2c(c1)-c1nc(NC(=O)c3cc(Cl)ccc3OC)sc1CC2	2%
Cc1ccc(-n2c(=O)c3oc4ccccc4c3n(CC(=O)Nc3ccc(F)c(Cl)c3)c2=O)cc1C	1%
COC(=O)c1cc2sc(C)cc2n1Cc1ccccc1	-2%
Cc1ccc(CNC(=O)CCCN2C(=O)c3cccnc3Oc3ccc(Cl)cc32)cc1	23%
COc1cc(NS(=O)(=O)c2c(C(=O)N3CCCCC3)c(C)n(C)c2C)cc(OC)c1OC	-2%
CC(C)C(=O)Nc1ccc2nc(SCCOc3ccccc3)sc2c1	-15%
Cc1ccc2nc(N3CCN(c4ccccc4)CC3)c3nnnn3c2c1	1%
Cc1ccc(NC(=O)C2CCCN2S(=O)(=O)c2ccc3nc(-c4ccccc4)[nH]c3c2)cc1C (stereo not drawn)	-1%
Cc1oc(-c2cccc(Br)c2)nc1CN1CCC(C(=O)NCc2ccccc2)CC1	3%
